MT1-MMP act inh: inhibitors of human MT1-MMP activation; 360,000 compounds, 0.061% hits; HT1080 RFP-PRO-GFP cells, GFP/RFP ratio fluorescence, overnight; percent of plate control window, DMSO zero; P50281; GFP/RFP ratio change, % at 20 µM;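 active means GFP/RFP ratio change of at least 30% with cell ATP level not reduced by more than half and red fluorescence within 50% of control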; further: strong numbers were not always called active
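Material: RFP-PRO-GFP reporter HT1080 cells. Dosing: single-point 20 µM compound, 1% DMSO. Controls: DMSO and RFP-L50D-GFP cell wells. Timing: cells overnight before dosing, compound overnight, 37 °C, 5% CO2. Measure: GFP/RFP fluorescence ratio.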
Env fusion inh: HIV envelope-mediated fusion inhibition; HeLa-JRFL Env/CEM21 cell fusion, luciferase; inhibition, % at 12.3 µM; 360,000 compounds, 1.1% hits; AID 651610;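 active means mean replicate inhibition score of at least 50 and every replicate individually at or above 50; inconclusive means only one of the two criteria met; inactive means mean below 50 and not all replicates reaching 50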;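 further: 0% = plate neutral controls and 100% = maraviroc near 300 nM; one replicate is shown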
CSC inhib: cancer stem cell inhibition; cancer stem cell-like cells viability, luminescence; inhibition, % at 7.5 µM; 300,000 compounds, 1.1% hits; AID 2717;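 active means mean at 75% or more and at least half the replicates too; inconclusive means mean and replicates disagree; tested in HMLE shEcad cells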;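 further: 0% = median of negative and 100% = median of positive control wells; the first replicate is given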
Yeast UUG start: yeast start codon fidelity modulation. activity score, % at 18.7 µM. AID 602363. S. cerevisiae UUG-firefly luciferase reporter, luminescence/redox ratio. 350,000 compounds, 0.13% hits;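 active means replicate mean at a twofold rise or more, about +100% in these data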;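 further: firefly luciferase made from a UUG start codon reports start codon fidelity; reporter light over untreated wells divided by growth signal over untreated wells; some hits fall short of that in this replicate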
PABP polyA inh: PABP-poly(A) binding inhibition | P11940 | PABP-poly(A) RNA binding, fluorescence polarization | inhibition, % at 35 µM | 290,000 compounds, 1% hits | AID 2014;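 active means 50% or more with normal probe brightness, or confirmed in later tests; inconclusive means above 50% with abnormal brightness, or retests that disagree; inactive means below 50% or failed in later tests; about a fifth of its hits are not listed in these tables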;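 further: calls also rest on retests at 20 µM and on dose response follow-up; controls were probe without protein and protein plus probe with vehicle; some compounds called inactive have numbers as strong as hits; many hits fall short of the cut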
Target sequence (P11940 whole entry, looked up): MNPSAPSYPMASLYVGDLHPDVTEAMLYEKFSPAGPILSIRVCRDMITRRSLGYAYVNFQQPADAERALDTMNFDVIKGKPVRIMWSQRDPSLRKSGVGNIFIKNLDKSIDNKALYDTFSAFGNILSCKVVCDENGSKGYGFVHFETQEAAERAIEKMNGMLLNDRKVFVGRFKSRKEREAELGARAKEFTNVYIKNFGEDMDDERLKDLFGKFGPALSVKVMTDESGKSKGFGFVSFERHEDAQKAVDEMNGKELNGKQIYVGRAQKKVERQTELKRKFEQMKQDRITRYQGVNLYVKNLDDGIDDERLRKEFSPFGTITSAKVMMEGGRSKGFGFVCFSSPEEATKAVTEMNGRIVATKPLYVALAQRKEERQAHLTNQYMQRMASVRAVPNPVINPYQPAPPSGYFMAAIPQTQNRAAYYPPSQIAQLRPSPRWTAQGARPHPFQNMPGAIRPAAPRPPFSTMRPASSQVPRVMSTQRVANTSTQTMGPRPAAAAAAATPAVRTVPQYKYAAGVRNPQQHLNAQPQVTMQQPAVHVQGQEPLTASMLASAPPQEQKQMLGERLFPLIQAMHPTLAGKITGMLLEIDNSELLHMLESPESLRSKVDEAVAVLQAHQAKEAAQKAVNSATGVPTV
Rce1 inh: blocks yeast Ras-converting enzyme; yeast membranes, quenched prenylated peptide cleavage fluorescence; calls only; 290,000 compounds, 0.27% hits;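 active means fall in fluorescence gain of 50% or more versus controls, with final raw signal at or below 3038400; inconclusive means same 50% fall but final raw signal above 3038400; inactive means fall in fluorescence gain under 50%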;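 further: plate controls were neutral control wells for no effect and wells lacking membranes for full effect; tested at 10 µM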
eIF4H inh: inhibitors of RNA binding by human eIF4H | AID 2012 | Q15056 | 290,000 compounds, 0.94% hits | eIF4H fluorescence polarization binding assay | inhibition, % at 35 µM;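 active means 50% or more with normal probe brightness, or confirmed in later tests; inconclusive means above 50% with abnormal brightness, or retests that disagree; inactive means below 50% or failed in later tests; about a fifth of its hits are not listed in these tables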;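 further: calls also rest on retests at 20 µM and on dose response follow-up; 0% = protein and probe with vehicle and 100% = probe without protein; strong numbers were not always called active; many hits fall short of the cut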
MT1-MMP act inh RFP: further read-out of MT1-MMP act inh, marked with its call; RFP signal change, %; measured here: RFP expression control read;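 0 = vehicle wells; hits needed this value within 50% of zero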
Active calls of the source: *; i = inactive; ? = inconclusive; . = not tested or not shown; & = joins results of further samples. These rows are one share of the data; rates above refer to the full screens.

SMILES	MT1-MMP act inh	MT1-MMP act inh RFP	Env fusion inh	CSC inhib	Yeast UUG start	PABP polyA inh	Rce1 inh	eIF4H inh
CCN(CC)c1ccc(/C=N/Nc2ccc(C)cc2)c(O)c1	0	8	8	40	.	-18	.	21
COC(=O)NCc1ccc(CNC(=O)OC)cc1	-3	-1	.	-11	-17	3	i	-12
CCCOc1ccc(CN(CCO)CCO)cc1C(=O)OC	2	0	.	-7	-13	-3	i	-4
CC(C)c1cc(C(=O)N/N=C/c2c[nH]c3ccccc23)n[nH]1	6	5	-42	24	.	-3	i	-1
COC(=O)C1=CN(Cc2ccc(OC)c(OC)c2)C=C(C(=O)OC)C1c1cccc(OC)c1OC	-5	-2	-2	6	2	7	i	-4
CCNC(=S)N/N=C(\C)c1cccc(OC)c1	-1	4	-29	-9	11	9	i	4
COc1ccc(-c2cc(C(=O)Nc3c(Cl)cc(Cl)cc3Cl)c3ccccc3n2)cc1OC	-1	-2	2	24	-9	5	i	-4
COCCCN1C(=O)C(=O)/C(=C(/O)c2ccc(C)cc2)C1c1ccccc1 (stereo unspecified)	-5	-6	.	-12	-17	-6	i	-7
CCn1c(CSc2ncccn2)nnc1SCC(=O)N1c2ccccc2CC1C (stereo unspecified)	-1	7	.	3	.	11	i	9
O=C(CCN1CCCO1)NC1CCCc2c1cnn2-c1ccccc1F (stereo unspecified)	-1	-4	-4	8	.	0	i	-12
CCCN1CN(Cc2ccccc2)CNC1=S	0	3	-42	-7	-4	2	i	1
CCc1nc2ccc(C(=O)Nc3ccc(C(N)=O)cc3)cn2c1N(C)CCC(C)C	0	-3	31	.	-22	.	.	.
COC(=O)C1CCN(C(=O)Cc2ccc(Br)cc2)CC1	-2	3	-56	-8	-7	2	i	-3
O=[N+]([O-])c1cccc(/C=N/Nc2nccnc2Cl)c1	1	-1	-128	0	-30	2	i	0
Cc1cc(C)n(C(=O)c2ccc(NC(=O)C3COc4ccccc4O3)cc2)n1 (stereo unspecified)	3	5	.	10	0	-9	i	-1
O=C(CCC(=O)c1ccc(F)cc1)OC1CCOC1=O (stereo unspecified)	-1	-1	.	-13	-28	4	i	1
Cc1cccc(NC(=O)NCCc2ccc(Cl)cc2)c1	3	1	-4	-8	15	-14	i	-8
COc1cccc(N/C(SCc2cccc([N+](=O)[O-])c2)=C(/C#N)C(=O)NCc2cccs2)c1	-17	-12	.	8	-10	3	i	-2
O=C(Oc1ccccc1)c1cc2ccccc2o1	-9	-5	.	-4	-17	-12	i	0
O=C(NCc1ccccn1)c1ccc2c(=O)n3nc(Nc4ccccc4)sc3nc2c1	1	9	21	29	-27	-7	i	7
CC(C)C(=O)NC(Nc1ccccc1F)C(Cl)(Cl)Cl (stereo unspecified)	3	1	-8	-3	.	5	i	-3
O=C(Nc1ccc(Cl)cc1)C1CCCN(S(=O)(=O)c2cnc[nH]2)C1 (stereo unspecified)	1	0	8	-6	-15	8	i	3
Cc1cc(C(C)(C)C)cc(C)c1C[n+]1ccc2ccccc2c1	6	-29	41	10	-13	2	i	4
S=C(Nc1ccccc1)N1CCOCCOCCN(C(=S)Nc2ccccc2)CCOCCOCC1	2	0	10	-9	-32	3	i	4

Four entries from above, field by field:
O=C(CCC(=O)c1ccc(F)cc1)OC1CCOC1=O (stereo unspecified)
  MT1-MMP act inh: -1
  MT1-MMP act inh RFP: -1
  Env fusion inh: .
  CSC inhib: -13
  Yeast UUG start: -28
  PABP polyA inh: 4
  Rce1 inh: i
  eIF4H inh: 1

Cc1cccc(NC(=O)NCCc2ccc(Cl)cc2)c1
  MT1-MMP act inh: 3
  MT1-MMP act inh RFP: 1
  Env fusion inh: -4
  CSC inhib: -8
  Yeast UUG start: 15
  PABP polyA inh: -14
  Rce1 inh: i
  eIF4H inh: -8

COc1cccc(N/C(SCc2cccc([N+](=O)[O-])c2)=C(/C#N)C(=O)NCc2cccs2)c1
  MT1-MMP act inh: -17
  MT1-MMP act inh RFP: -12
  Env fusion inh: .
  CSC inhib: 8
  Yeast UUG start: -10
  PABP polyA inh: 3
  Rce1 inh: i
  eIF4H inh: -2

O=C(Oc1ccccc1)c1cc2ccccc2o1
  MT1-MMP act inh: -9
  MT1-MMP act inh RFP: -5
  Env fusion inh: .
  CSC inhib: -4
  Yeast UUG start: -17
  PABP polyA inh: -12
  Rce1 inh: i
  eIF4H inh: 0

Single values from the list:
Value for CC(C)C(=O)NC(Nc1ccccc1F)C(Cl)(Cl)Cl (stereo unspecified) under MT1-MMP act inh RFP: 1
Value for O=C(NCc1ccccn1)c1ccc2c(=O)n3nc(Nc4ccccc4)sc3nc2c1 under eIF4H inh: 7

The listing continues.
SMILES	MT1-MMP act inh	MT1-MMP act inh RFP	Env fusion inh	CSC inhib	Yeast UUG start	PABP polyA inh	Rce1 inh	eIF4H inh
O=C(NC1CC(=O)N(c2ccccc2)C1)N1CCN(C(=O)c2ccco2)CC1 (stereo unspecified)	0	3	8	-3	-11	.	i	.
COc1ccc(NC(=O)Nc2cccc3ccccc23)cc1S(N)(=O)=O	4	4	-18	-13	-4	5	i	3
COc1ccc(NC(=O)CN2C(=O)C(C)Oc3ccccc32)c(OC)c1 (stereo unspecified)	7	1	-13	-15	-10	-1	i	-7
CCOC(=O)N1CCN(CCC(=O)Nc2ccc(C)c(Br)c2)CC1	3	-4	.	-5	-13	9	i	4
CCn1c(C(=O)N2CCCC(C(=O)O)C2)cc2sccc21 (stereo unspecified)	3	0	.	-6	-21	7	i	-5
CSC1=C(C#N)C2(CCCC2)C(C#N)=C(N)N1	.	.	.	-16	.	2	i	-2
Clc1ccc(-c2nnc(-c3ccco3)o2)cc1	0	3	-111	10	-15	2	i	-1
Cc1cccc(NC(=O)CS(=O)(=O)c2c[nH]c3ccccc23)c1C	-1	-6	2	9	-16	-4	i	-1
O=C(Nc1ccc(Sc2ccc(Br)cc2)cc1)c1ccco1	4	-7	44	29	-23	19	.	0
COC(=O)COc1ccc2c(c1)O/C(=C\c1cccc([N+](=O)[O-])c1)C2=O	0	3	-6	-5	-8	10	i	-11
O=C(NCc1ccc(-c2nc3ccccc3s2)cc1)c1ccco1	10	0	-19	1	-15	0	i	-8
Cc1ccc(C)c(OCCC(=O)OCC(=O)NCCc2ccc(S(N)(=O)=O)cc2)c1	4	-3	-5	-11	.	.	i	.

Five compounds drawn at random from the list so far:
SMILES	MT1-MMP act inh	MT1-MMP act inh RFP	Env fusion inh	CSC inhib	Yeast UUG start	PABP polyA inh	Rce1 inh	eIF4H inh
O=C(Nc1ccc(Sc2ccc(Br)cc2)cc1)c1ccco1	4	-7	44	29	-23	19	.	0
O=C(NC1CC(=O)N(c2ccccc2)C1)N1CCN(C(=O)c2ccco2)CC1 (stereo unspecified)	0	3	8	-3	-11	.	i	.
COC(=O)COc1ccc2c(c1)O/C(=C\c1cccc([N+](=O)[O-])c1)C2=O	0	3	-6	-5	-8	10	i	-11
O=C(NCc1ccc(-c2nc3ccccc3s2)cc1)c1ccco1	10	0	-19	1	-15	0	i	-8
CCOC(=O)N1CCN(CCC(=O)Nc2ccc(C)c(Br)c2)CC1	3	-4	.	-5	-13	9	i	4

Next section.
SMILES	MT1-MMP act inh	MT1-MMP act inh RFP	Env fusion inh	CSC inhib	Yeast UUG start	PABP polyA inh	Rce1 inh	eIF4H inh
CCOc1ccc2[nH]c(=O)c(CN(CC3COCCO3)C(=O)c3ccc(C)cc3)cc2c1 (stereo unspecified)	-7	-6	13	-10	-6	0	i	0
COc1ccccc1NC(=O)C1=C(C)NC(=O)NC1c1cccs1 (stereo unspecified)	-1	1	4	-8	.	-4	i	-6
COCCCn1cc(C(=O)c2ccccc2OCC(=O)Nc2cccc(F)c2)cc(C#N)c1=O	-4	0	15	-5	15	-4	i	3
CC(=O)c1cc(-c2ccccc2)n(CC(=O)Nc2cccc(C)c2)c1C	-3	-3	17	3	-15	19	i	3
O=C(CCCSc1nnc(-c2cccs2)n1CC1CCCO1)c1ccccc1 (stereo unspecified)	2	-7	14	6	-20	5	i	2
C[C@H](NC(=O)N1CCn2c1nc1ccccc12)C(=O)NCC1CCCO1 (stereo partly specified)	1	4	0	5	-4	-6	i	-10
O=C1CN(C(=O)CSc2nncs2)c2ccccc2N1	-4	1	10	-16	-6	-20	i	0
O=[N+]([O-])c1cccc(C(=Nc2ccc(Cl)cc2)NO)c1	-1	3	14	-5	-16	-11	i	-5
Cc1ccccc1S(=O)Cc1ccc(C(=O)NC2CC2)o1 (stereo unspecified)	2	4	-9	-3	-7	-2	i	-3
Cc1cccnc1C(NC(=O)C1CCN(Cc2ccc(Cl)c(Cl)c2)CC1)c1ccc(Cl)cc1 (stereo unspecified)	4	-15	63*	.	-5	.	.	.
CCC(=O)NC(c1ccco1)c1cc(Cl)c2cccnc2c1O (stereo unspecified)	-7	-8	?	-10	.	33	i	32
C=CCn1c(SCC(=O)c2ccc(O)c(O)c2)nnc1-c1cccc(Cl)c1	14	-3	-80	26	-13	.	.	.
CCOC(=O)C1CN(S(=O)(=O)c2ccc(F)cc2)C1	4	1	-4	-14	-14	-6	i	0
COc1ccc(OC)c(N2C(=NC(=O)C3CCCCC3)SC3CS(=O)(=O)CC32)c1 (stereo unspecified)	0	1	6	-13	-6	1	i	-4
CN(Cc1cnn(-c2ccccc2)c1)C(=O)C1CCC(=O)N(C2CC2)C1 (stereo unspecified)	2	5	.	-1	2	14	i	7
COc1ccc(/C=N/NC(=O)c2nn(C)cc2Br)cc1CSCc1ccco1	0	-3	.	-2	-12	14	.	-4
CCCCc1nc2sc3c(c2c(=O)[nH]1)CCC3	2	1	.	-4	-26	1	i	2
CCn1cnc2cc(NCc3ccc(C)cc3)ccc21	14	6	.	-3	-22	5	i	3
C=CCc1ccc(OCC(O)CN2CCCCC2)c(OC)c1 (stereo unspecified)	-10	2	.	-22	0	-9	i	-9
COc1ccc(C(=O)NC2CCCCCC2)cc1S(=O)(=O)N1CCCC1	3	0	8	-5	.	8	i	3
CCOC(=O)C1=C(COC(=O)/C=C/c2cc(Br)ccc2F)NC(=O)NC1C (stereo unspecified)	2	-1	.	.	-12	.	i	.
Cc1cccc(CN(C)C[C@H]2OCc3cnnn3CCCC(=O)N([C@H](C)CO)C[C@@H]2C)c1	-1	2	5	.	-12&13	.	.	.
CCN1C(=O)[C@@H]2[C@@H]3CN(S(=O)(=O)c4ccc(C)cc4)[C@@H](c4ccccc4F)[C@@H]3C(=O)C[C@@H]2C1=O	3	5	-2	.	-8	.	.	.
CCOc1ccccc1CNCc1ccc(F)cc1	-1	1	8	10	.	4	i	-3
Cc1ccc(C2N=C(N)Nc3nc4ccccc4n32)cc1 (stereo unspecified)	-1	-2	7	-4	-9	-10	i	-4
Cc1onc(-c2c(Cl)cccc2Cl)c1CO/N=C(\C#N)c1c(Cl)cccc1Cl	0	-6	33	13	.	-4	.	-4
CCOC(=O)N/N=C/c1ccc(OC)c(O)c1	1	2	6	-7	.	6	i	7
COc1ccc(N(CC(=O)N2CCN(Cc3ccccc3)CC2)S(C)(=O)=O)cc1	5	2	10	-1	-9	0	i	10
COc1ccc(CCNC(=O)CSc2nc(-c3ccco3)cc(C(F)(F)F)n2)cc1OC	-5	-4	.	-7	-8	-3	i	4
C/C=C\C(=O)Nc1cccc(C2=NOC3(C2)C[C@@H](C(N)=O)N(C(=O)c2ccc(Cl)cc2)C3)c1 (stereo partly specified)	1	4	-3	-3	-4	-7	i	-9

Compound activity: PubChem BioAssay, several laboratories
